Source: PubChem BioAssay
AF4-AF9 inh: inhibitors of human MLL-AF4/AF9 interaction. P42568. AlphaScreen, biotin-AF4 peptide binding to FLAG-AF9. inhibition, % at 10 µM. 350,000 tested, 0.47% active;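 active = every replicate reaching a set inhibition limit, whatever the replicate mean, cut at about 25% in these data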;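 note: 0% = plate neutral control median and 100% = total signal loss; the record names both 10 and 1 µM as test concentration; the first replicate is given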
Target sequence (P42568 whole entry, looked up): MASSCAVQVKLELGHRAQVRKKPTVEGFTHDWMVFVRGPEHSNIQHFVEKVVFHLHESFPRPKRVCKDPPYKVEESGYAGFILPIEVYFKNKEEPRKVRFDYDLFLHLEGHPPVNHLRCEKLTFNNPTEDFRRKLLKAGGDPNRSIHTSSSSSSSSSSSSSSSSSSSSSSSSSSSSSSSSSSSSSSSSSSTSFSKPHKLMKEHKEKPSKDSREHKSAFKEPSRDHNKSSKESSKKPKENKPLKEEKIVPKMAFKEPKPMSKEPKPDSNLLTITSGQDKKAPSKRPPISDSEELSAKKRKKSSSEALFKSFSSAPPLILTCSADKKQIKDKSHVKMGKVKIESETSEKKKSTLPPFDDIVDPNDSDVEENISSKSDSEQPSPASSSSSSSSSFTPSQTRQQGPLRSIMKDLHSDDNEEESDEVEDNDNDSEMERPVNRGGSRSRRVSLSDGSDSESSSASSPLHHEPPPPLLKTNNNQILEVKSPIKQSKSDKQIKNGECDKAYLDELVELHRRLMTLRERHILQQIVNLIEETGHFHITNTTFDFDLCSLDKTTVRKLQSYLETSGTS
FGF22 binding: shifts melting point of recombinant human FGF22; Q9HCT0; recombinant FGF22 thermal shift, SYPRO orange fluorescence; percent of sucrose octasulfate shift, DMSO zero; calls only at 9.99 µM; 340,000 tested, 1.5% active; AID 651658;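 active = melting point raised past a set limit in the mean and every replicate; three in four hits are not shown here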
Target sequence (Q9HCT0 whole entry, looked up): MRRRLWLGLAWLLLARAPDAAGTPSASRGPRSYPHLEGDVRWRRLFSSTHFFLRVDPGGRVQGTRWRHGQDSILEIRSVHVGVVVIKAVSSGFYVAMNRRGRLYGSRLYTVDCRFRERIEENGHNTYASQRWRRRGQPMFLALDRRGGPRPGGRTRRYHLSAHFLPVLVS
Ecoli rRNA inh: inhibits bacterial ribosomal RNA function over humanized ribosomes | 350,000 tested, 1.6% active | E. coli WT GFP vs humanized-ribosome RFP mutants, fluorescence, 24 h; hits give low values; DMSO median 0, no signal -100 | GFP signal change (wild-type ribosome), % (no concentration beside the values);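 active = significant combined selectivity score with lowered wild-type GFP, culture density cut under 30%, mutant RFP and density less affected; inactive = any of these conditions unmet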; note: one replicate is shown; some compounds called inactive have numbers as strong as hits
Ecoli rRNA inh OD600: further read-out of Ecoli rRNA inh, marked with its call; OD600 change, %; measured here: OD600 growth;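 optical density of the mix in the first replicate; 0 = DMSO median and -100 = no signal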
Ecoli rRNA inh RFP: also measured in Ecoli rRNA inh; calls as there; RFP signal change, %; measured here: RFP humanized mutant strains;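 first replicate; 0 = DMSO median and -100 = no signal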
* marks the source's active call; other numbers are inactive results; & = joins results of further samples. This is a subset. The share of hits here may be higher or lower than overall.

What do the screens show for `CCC(=O)Nc1ccc2c(c1)C(=O)N(C)[C@H]1CC[C@@H](CC(=O)N3CCCCC3)O[C@H]1CO2`?
AF4-AF9 inh: 0.8; FGF22 binding: inactive; Ecoli rRNA inh: 0.1; Ecoli rRNA inh OD600: -0.2; Ecoli rRNA inh RFP: -1.7

How did C[C@H]1CN([C@@H](C)CO)S(=O)(=O)c2ccc(Br)cc2O[C@@H]1CN(C)Cc1cncnc1 do in these assays?
AF4-AF9 inh: -2.0; FGF22 binding: inactive; Ecoli rRNA inh: -3.6; Ecoli rRNA inh OD600: -2.5; Ecoli rRNA inh RFP: 2.7

How did CCC(C(=O)NC1CCCC1)n1c2ccccc2c2nc(=O)cc(C)n21 (stereo not given) do in these assays?
AF4-AF9 inh: -0.9; FGF22 binding: inactive; Ecoli rRNA inh: 5.2; Ecoli rRNA inh OD600: 4.5; Ecoli rRNA inh RFP: -4.2

How did CO[C@H]1CN(C)C(=O)c2ccc(NC(=O)CC(F)(F)F)cc2OC[C@H](C)N(C(C)=O)C[C@H]1C do in these assays?
AF4-AF9 inh: -4.4; FGF22 binding: inactive; Ecoli rRNA inh: 1.8; Ecoli rRNA inh OD600: 3.2; Ecoli rRNA inh RFP: 0.0

Results for CC(C)CC#Cc1cnc2c(c1)C(=O)N([C@@H](C)CO)C[C@H](C)[C@H](CN(C)C(=O)c1cccc(F)c1)O2 ?
AF4-AF9 inh: 0.1; FGF22 binding: inactive; Ecoli rRNA inh: 1.6; Ecoli rRNA inh OD600: 14.1; Ecoli rRNA inh RFP: 2.5

Results for C[C@@H]1CN([C@H](C)CO)C(=O)c2cccc(NC(=O)C3CCCCC3)c2O[C@@H]1CN(C)Cc1ccc(C(F)(F)F)cc1 ?
AF4-AF9 inh: 1.6; FGF22 binding: inactive; Ecoli rRNA inh: -0.6; Ecoli rRNA inh OD600: -2.4; Ecoli rRNA inh RFP: -6.5

What do the screens show for `COc1ccccc1-c1cnc2c(c1)C(=O)N([C@@H](C)CO)C[C@@H](C)[C@H](CN(C)Cc1ccc(C(=O)O)cc1)O2`?
AF4-AF9 inh: -12.1; FGF22 binding: inactive; Ecoli rRNA inh: 0.8; Ecoli rRNA inh OD600: 1.7; Ecoli rRNA inh RFP: -0.5

What do the screens show for `O=C(C1CCC1)N1CC2(C1)[C@H](c1ccccc1)[C@@H](CO)N2C(=O)c1ccccn1`?
AF4-AF9 inh: 0.2; FGF22 binding: inactive; Ecoli rRNA inh: -0.6; Ecoli rRNA inh OD600: 1.8; Ecoli rRNA inh RFP: 0.9

How did CC(C)C#Cc1cnc2c(c1)C(=O)N([C@@H](C)CO)C[C@H](C)[C@H](CN(C)Cc1cccc(F)c1)O2 do in these assays?
AF4-AF9 inh: -1.7; FGF22 binding: inactive; Ecoli rRNA inh: 1.9; Ecoli rRNA inh OD600: -2.9; Ecoli rRNA inh RFP: 1.2

How did C[C@@H]1CN([C@H](C)CO)S(=O)(=O)c2ccc(C#CCN(C)C)cc2O[C@@H]1CN(C)Cc1cccnc1 do in these assays?
AF4-AF9 inh: 1.0; FGF22 binding: inactive; Ecoli rRNA inh: -4.1; Ecoli rRNA inh OD600: -0.2; Ecoli rRNA inh RFP: 4.3

What do the screens show for `COCC(=O)Nc1ccc2c(c1)OC[C@@H](C)N(Cc1ccccc1F)C[C@@H](C)[C@@H](OC)CN(C)C2=O`?
AF4-AF9 inh: 4.6; FGF22 binding: inactive; Ecoli rRNA inh: 0.6; Ecoli rRNA inh OD600: -2.4; Ecoli rRNA inh RFP: 1.4

What do the screens show for `COc1cccc(S(=O)(=O)N2C[C@@H](O)COC[C@@H]3O[C@H](CC(=O)Nc4ccccc4)CC[C@H]32)c1`?
AF4-AF9 inh: -2.9; FGF22 binding: inactive; Ecoli rRNA inh: -0.8; Ecoli rRNA inh OD600: -6.4; Ecoli rRNA inh RFP: 0.5

What do the screens show for `COCc1cn(CC[C@H]2CC[C@@H](NC(=O)Nc3ccc(C(F)(F)F)cc3)[C@@H](CO)O2)nn1`?
AF4-AF9 inh: 1.1; FGF22 binding: inactive; Ecoli rRNA inh: -2.8; Ecoli rRNA inh OD600: -5.3; Ecoli rRNA inh RFP: 0.3

Results for COc1ccccc1CNC(=O)C[C@@H]1CC[C@H]2[C@@H](COC[C@H](O)CN2C(=O)Nc2ccc(C(F)(F)F)cc2)O1 ?
AF4-AF9 inh: -0.3; FGF22 binding: inactive; Ecoli rRNA inh: -53.0; Ecoli rRNA inh OD600: -77.4; Ecoli rRNA inh RFP: -14.4

Results for Cc1noc(C)c1NC(=O)Nc1ccc2c(c1)C(=O)N([C@@H](C)CO)C[C@@H](C)[C@@H](CN(C)C(=O)NC(C)C)OCCCC[C@@H](C)O2 ?
AF4-AF9 inh: -3.2; FGF22 binding: inactive; Ecoli rRNA inh: 9.5; Ecoli rRNA inh OD600: 14.3; Ecoli rRNA inh RFP: -0.1

What do the screens show for `COc1ccccc1S(=O)(=O)N(C)C[C@@H]1Oc2ncc(-c3ccc(C)cc3)cc2C(=O)N([C@H](C)CO)C[C@H]1C`?
AF4-AF9 inh: 2.1; FGF22 binding: inactive; Ecoli rRNA inh: -3.8; Ecoli rRNA inh OD600: -20.4; Ecoli rRNA inh RFP: 20.8

What do the screens show for `C[C@@H]1CN([C@H](C)CO)C(=O)c2cccc(NC(=O)c3ccncc3)c2O[C@@H]1CN(C)CC1CC1`?
AF4-AF9 inh: -1.4; FGF22 binding: inactive; Ecoli rRNA inh: 4.6; Ecoli rRNA inh OD600: 11.8; Ecoli rRNA inh RFP: 2.9

Results for CCOC(=O)C1=CCN(S(=O)(=O)c2ccccc2Br)C1c1cccc(F)c1 (stereo not given) ?
AF4-AF9 inh: -2.4; FGF22 binding: inactive; Ecoli rRNA inh: -16.8; Ecoli rRNA inh OD600: -38.2; Ecoli rRNA inh RFP: 4.0

Results for C[C@H](CO)N1C[C@H](C)[C@H](CN(C)C(=O)Nc2ccc(F)cc2)Oc2ncc(Br)cc2C1=O ?
AF4-AF9 inh: 1.0&2.7&-2.0; FGF22 binding: inactive; Ecoli rRNA inh: 4.2&-2.1; Ecoli rRNA inh OD600: 6.8&4.0; Ecoli rRNA inh RFP: -1.9&-1.3

Results for C[C@@H]1CN([C@H](C)CO)C(=O)c2cc(NS(C)(=O)=O)ccc2O[C@@H]1CN(C)Cc1ccc(Cl)c(Cl)c1 ?
AF4-AF9 inh: 3.2; FGF22 binding: inactive; Ecoli rRNA inh: -6.3; Ecoli rRNA inh OD600: -19.0; Ecoli rRNA inh RFP: 1.9

How did CCCCCCN1C[C@H](n2cc(-c3ccc(F)cc3)nn2)[C@@H](O)C[C@@H]1c1ccc(OC)cc1 do in these assays?
AF4-AF9 inh: 2.6; FGF22 binding: inactive; Ecoli rRNA inh: -0.1; Ecoli rRNA inh OD600: 6.5; Ecoli rRNA inh RFP: -3.6

What do the screens show for `C[C@@H]1CN([C@H](C)CO)C(=O)c2cc(C#CC3(O)CCCC3)cnc2O[C@@H]1CN(C)S(=O)(=O)c1cccc(F)c1`?
AF4-AF9 inh: -23.3; FGF22 binding: inactive; Ecoli rRNA inh: 3.5; Ecoli rRNA inh OD600: 10.0; Ecoli rRNA inh RFP: 0.2

How did CC(=O)N(CCc1ccccc1)c1ccc2c(c1)C1CC2CCN1C(=O)OCc1ccccc1 (stereo not given) do in these assays?
AF4-AF9 inh: 0.4; FGF22 binding: inactive; Ecoli rRNA inh: -12.7; Ecoli rRNA inh OD600: -25.8; Ecoli rRNA inh RFP: 2.1

What do the screens show for `CCCN(C)C[C@H]1OCCCC[C@H](C)Oc2ccc(NC(=O)Nc3ccc(C(F)(F)F)cc3)cc2C(=O)N([C@@H](C)CO)C[C@H]1C`?
AF4-AF9 inh: -0.8; FGF22 binding: inactive; Ecoli rRNA inh: -2.1; Ecoli rRNA inh OD600: -15.9; Ecoli rRNA inh RFP: -2.0

What do the screens show for `CC1=C(C(=O)N(C)C)CC(CC(=O)NCc2cccs2)C(=O)N1Cc1ccc(F)cc1` (stereo not given)?
AF4-AF9 inh: -3.5; FGF22 binding: inactive; Ecoli rRNA inh: -2.1; Ecoli rRNA inh OD600: 0.1; Ecoli rRNA inh RFP: 1.9

Results for C[C@H]1CN([C@@H](C)CO)C(=O)c2cc(NS(C)(=O)=O)ccc2O[C@H]1CN(C)Cc1ccc(C(=O)O)cc1 ?
AF4-AF9 inh: -2.5; FGF22 binding: inactive; Ecoli rRNA inh: 4.0; Ecoli rRNA inh OD600: 10.7; Ecoli rRNA inh RFP: -0.4

What do the screens show for `CCc1noc(C)c1C(=O)N(CC(C)C)c1c(N)n(Cc2ccccc2)c(=O)[nH]c1=O`?
AF4-AF9 inh: -11.2; FGF22 binding: inactive; Ecoli rRNA inh: 7.3; Ecoli rRNA inh OD600: 14.2; Ecoli rRNA inh RFP: -1.3

How did COc1ccc(CN(C)C[C@@H]2Oc3ccc(NC(=O)Nc4cccc5ccccc45)cc3CC(=O)N([C@H](C)CO)C[C@H]2C)cc1 do in these assays?
AF4-AF9 inh: -2.1; FGF22 binding: inactive; Ecoli rRNA inh: -3.3; Ecoli rRNA inh OD600: -3.9; Ecoli rRNA inh RFP: 7.3

What do the screens show for `CCN(CC)CCC12CC(C)OC1=Nc1ccccc1NC2=O` (stereo not given)?
AF4-AF9 inh: -0.4; FGF22 binding: inactive; Ecoli rRNA inh: 10.9; Ecoli rRNA inh OD600: 19.0; Ecoli rRNA inh RFP: -0.2

What do the screens show for `CCC(=O)N(C)C[C@@H]1Oc2ncc(-c3ccc(F)cc3)cc2C(=O)N([C@@H](C)CO)C[C@H]1C`?
AF4-AF9 inh: -0.1; FGF22 binding: inactive; Ecoli rRNA inh: -1.8; Ecoli rRNA inh OD600: 7.4; Ecoli rRNA inh RFP: -2.3

Results for C[C@@H]1CN([C@@H](C)CO)C(=O)c2cc(NC(=O)C3CCCCC3)ccc2O[C@H]1CN(C)Cc1ccccc1 ?
AF4-AF9 inh: -0.3; FGF22 binding: inactive; Ecoli rRNA inh: -0.9; Ecoli rRNA inh OD600: -8.8; Ecoli rRNA inh RFP: -1.7

Results for CCC(C)NC(=O)C1(N2C(=O)c3ccccc3C2=O)CCCC1 (stereo not given) ?
AF4-AF9 inh: 1.5; FGF22 binding: inactive; Ecoli rRNA inh: 7.1; Ecoli rRNA inh OD600: 3.7; Ecoli rRNA inh RFP: -1.4

Results for COc1ccc2c3c([nH]c2c1)[C@@H](CO)N(Cc1ccccc1OC)CC31CN(S(=O)(=O)c2ccccc2)C1 ?
AF4-AF9 inh: -0.7; FGF22 binding: inactive; Ecoli rRNA inh: -1.6; Ecoli rRNA inh OD600: -13.4; Ecoli rRNA inh RFP: 1.3

Results for CO[C@@H]1CN(C)C(=O)c2ccc(NC(=O)Nc3cc(F)ccc3F)cc2OC[C@H](C)NC[C@@H]1C ?
AF4-AF9 inh: 0.9; FGF22 binding: inactive; Ecoli rRNA inh: 0.3; Ecoli rRNA inh OD600: -4.4; Ecoli rRNA inh RFP: 0.6

What do the screens show for `CCCS(=O)(=O)NC(=O)C1(C)CCCN(C(=O)c2cc(F)cc(F)c2)C1` (stereo not given)?
AF4-AF9 inh: -1.5; FGF22 binding: inactive; Ecoli rRNA inh: 5.4; Ecoli rRNA inh OD600: 2.5; Ecoli rRNA inh RFP: -0.4

What do the screens show for `CO[C@@H]1CN(C)C(=O)c2cc(NC(=O)c3cccc(F)c3)ccc2OC[C@H](C)N(CC2CC2)C[C@@H]1C`?
AF4-AF9 inh: -15.4; FGF22 binding: inactive; Ecoli rRNA inh: 1.2; Ecoli rRNA inh OD600: 3.8; Ecoli rRNA inh RFP: -2.4

How did O=S(=O)(Cc1ccccc1)N1CCCCN2[C@H](CO)[C@H](c3ccc(-c4ccc(F)cc4)cc3)[C@@H]2C1 do in these assays?
AF4-AF9 inh: 6.8; FGF22 binding: inactive; Ecoli rRNA inh: -4.2; Ecoli rRNA inh OD600: -22.8; Ecoli rRNA inh RFP: 14.5

What do the screens show for `CC(=O)Nc1ccc(S(=O)(=O)N2CCN(c3ccc(C(C)=O)cc3)CC2)cc1`?
AF4-AF9 inh: -1.9; FGF22 binding: inactive; Ecoli rRNA inh: 19.5; Ecoli rRNA inh OD600: 28.2; Ecoli rRNA inh RFP: 6.9

Results for COCc1c(C(=O)N(C)Cc2ccccc2N2CCCC2)oc2ccccc12 ?
AF4-AF9 inh: 10.5; FGF22 binding: inactive; Ecoli rRNA inh: -23.0; Ecoli rRNA inh OD600: -20.1; Ecoli rRNA inh RFP: -2.1

An excerpt of the results above, for reference:
What do the screens show for `CCC(=O)Nc1ccc2c(c1)C(=O)N(C)[C@H]1CC[C@@H](CC(=O)N3CCCCC3)O[C@H]1CO2`?
AF4-AF9 inh: 0.8; FGF22 binding: inactive; Ecoli rRNA inh: 0.1; Ecoli rRNA inh OD600: -0.2; Ecoli rRNA inh RFP: -1.7

How did C[C@H]1CN([C@@H](C)CO)S(=O)(=O)c2ccc(Br)cc2O[C@@H]1CN(C)Cc1cncnc1 do in these assays?
AF4-AF9 inh: -2.0; FGF22 binding: inactive; Ecoli rRNA inh: -3.6; Ecoli rRNA inh OD600: -2.5; Ecoli rRNA inh RFP: 2.7
